# UCH37 DUB inh: inhibitors of human UCH37 deubiquitinase, primary screen, biochemical, Ub-AMC cleavage, fluorescence. inhibition, % (no concentration beside the values). hit rate 0.33% among 330,000. Ubiquitin carboxyl-terminal hydrolase isozyme L5 (Homo sapiens), Q9Y5K5. purified proteasome/UCH37;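 active means mean of two replicates above 20%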;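 further: 0% = compound-free wells with enzyme and 100% = wells lacking proteasome; stock transfer was 100 nL into about 20 µL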
# Target sequence (Q9Y5K5 whole entry, looked up): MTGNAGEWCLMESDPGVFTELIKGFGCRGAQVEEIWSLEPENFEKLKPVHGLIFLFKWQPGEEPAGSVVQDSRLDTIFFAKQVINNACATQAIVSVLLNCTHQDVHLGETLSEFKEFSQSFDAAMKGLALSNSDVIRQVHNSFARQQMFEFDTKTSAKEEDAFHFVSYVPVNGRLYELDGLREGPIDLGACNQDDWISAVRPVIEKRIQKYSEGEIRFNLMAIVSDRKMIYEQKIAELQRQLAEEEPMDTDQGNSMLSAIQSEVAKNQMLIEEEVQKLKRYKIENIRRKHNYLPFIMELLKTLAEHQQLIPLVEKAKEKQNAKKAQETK
#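 Schedule: 30 min plus 25 min, room temperature / Material: human UCH37 within purified proteasomes / Technique: AMC fluorescence intensity at 355/460 nm / Buffer or medium: pH 7.4 Tris-HCl (50 mM) with ovalbumin, ATP-MgCl2, DTT / Controls: wells without proteasome as full block, compound-free enzyme plus substrate as uninhibited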
# Beta2AR agonist: beta2AR agonists driving receptor internalization, primary screen, cell-based, FAP fluorogen, flow cytometry. Beta-2 adrenergic receptor (Homo sapiens), P07550. Am2.2-beta2AR cells; reference of the scale not given here. response, % (concentration not given with the values). hit rate 0.43% among 340,000. AID 504454, 2011;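 active means response above a set limit, near 3 SD of response in nonfluorescent compounds, cut at about 42% in these data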;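 further: stock transfer was 100 nL into about 11 µL; a reference agonist was the positive control; negative values mostly stem from fluorescent compounds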
# Target sequence (P07550 whole entry, looked up): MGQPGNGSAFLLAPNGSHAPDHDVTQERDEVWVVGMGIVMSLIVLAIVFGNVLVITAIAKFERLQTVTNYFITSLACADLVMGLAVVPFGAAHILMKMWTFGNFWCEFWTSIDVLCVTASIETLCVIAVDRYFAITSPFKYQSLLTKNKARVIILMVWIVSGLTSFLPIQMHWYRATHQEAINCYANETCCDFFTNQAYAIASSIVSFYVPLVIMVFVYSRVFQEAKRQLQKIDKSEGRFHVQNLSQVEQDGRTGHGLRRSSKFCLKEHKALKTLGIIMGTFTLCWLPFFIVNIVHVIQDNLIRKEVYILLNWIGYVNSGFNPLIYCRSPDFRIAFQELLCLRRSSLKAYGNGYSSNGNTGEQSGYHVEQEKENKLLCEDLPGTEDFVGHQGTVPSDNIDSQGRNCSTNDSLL
# RanGTP-Impb inh: inhibitors of RanGTP-importin-beta interaction, primary screen, biochemical, FRET, CFP-Ran, YFP-importin-beta, homogeneous | hit rate 1.1% among 300,000 | cell-free CFP-Ran/YFP-importin-beta FRET ratio | Ran GTPase (GTP-bound) - importin-beta complex | inhibition, % (no concentration beside the values);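 active means most replicates above 15%; inconclusive means exactly half above 15%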;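 further: 0% = DMSO wells and 100% = Ran loaded with GDP instead of GTP; wells of about 40 µL received 100 nL stock; the first replicate is given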
# T cruzi inh: inhibitors of intracellular T. cruzi growth, primary screen, luminescence, NIH3T3 host cells | T. cruzi beta-gal in NIH3T3, 90 h | inhibition, % (test concentration not listed) | hit rate 1.4% among 300,000;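 active means mean inhibition across valid replicates above about 55%, limit read from the data; inconclusive means mean below that limit but half or more replicates reach it; inactive means mean below it, under half of replicates reach it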;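 further: signal also drops with host cell toxicity which is not excluded here; 0% = plate median of DMSO wells and 100% = zero luminescence signal; higher percent means less beta-gal luminescence so fewer parasites; stock transfer was 50 nL into about 50 µL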
# Bfl-1 A1 inh: caspase 3/7 activation in MEF A1-2A-BIM cells, primary screen, A1 inhibitor project, cell-based, luminescence, HTS | Caspase-Glo 3/7 luminescence, 3 h; percent of clofoctol response, vehicle zero | caspase activation, % (concentration not given with the values) | hit rate 0.066% among 330,000 | AID 2462, 2010;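 active means over half of replicate activation scores above 10%, or exactly half above 10 with the replicate mean above 10; inconclusive means replicate mean below 10 yet half the replicates above 10; inactive means over half of replicates below 10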;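 further: wells of about 30 µL received 50 nL stock; many hits fall short of the cut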
# Calb FLC: C. albicans growth inhibition with fluconazole, primary screen, CaCi-2 strain, Alamar Blue fluorescence. C. albicans CaCi-2 (fluconazole-resistant clinical isolate) + fluconazole, 48 h. hit rate 0.57% among 300,000. growth inhibition, % (test concentration not listed);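 active means most replicates above 75%; inconclusive means exactly half above 75%; inactive means most below 75%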;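 further: all wells also contain fluconazole at 8 µg/ml as a sub-toxic cotreatment; 0% = median of DMSO wells and 100% = median of geldanamycin control wells; wells of about 8 µL received 7.5 nL stock; the first replicate is given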
# Beta cell apopt: inhibitors of cytokine-induced beta cell apoptosis, primary screen, luminescence; AID 435005, 2010; INS-1E cytokine-induced death, ATP luminescence, 48 h; percent of positive-control rescue, neutral wells zero; protection from apoptosis, % (test concentration not listed); hit rate 0.8% among 300,000;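 active means all replicates at 75% or more, or half of them and the mean; inconclusive means half reach 75% but not the mean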;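 further: 0% = cytokine-treated negative control wells and 100% = positive control rescue; higher means more ATP so stronger rescue from cytokine killing; wells of about 40 µL received 100 nL stock; the first replicate is given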
# LANA-H2B inh: blockers of LANA interaction with H2A/H2B – biochemical, FP readout, HTS, primary screen. AID 2629, 2010. Protein LANA1 (Human herpesvirus 8 type P (isolate GK18)), Q9QR71. inhibition, % (test concentration not listed). cell-free LANA-H2A/H2B peptide, fluorescence polarization. hit rate 0.6% among 320,000; in the data active means inhibition mostly above about 10%, no sharp cut-off; inactive means mostly below about 6.7%;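 further: stock transfer was 7.5 nL into about 10 µL; 0% = median of vehicle wells and 100% = median of positive control wells; one replicate is shown; the record names a cut of 25% in any replicate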
# * hit, by the source's call; ? = inconclusive; . = not tested or not shown.
Compound	LANA-H2B inh	Beta cell apopt	Bfl-1 A1 inh	T cruzi inh	Calb FLC	Beta2AR agonist	UCH37 DUB inh	RanGTP-Impb inh
O=[N+]([O-])c1ccc(Sc2cccc3cccnc23)c([N+](=O)[O-])c1	-0.2	80.0*	-1.4	-3.3	-9.9	18.1	8.1	.
O=C(CNCc1ccccc1)Nc1ccc(Cl)cc1	-0.1	-0.4	-0.3	-10.5	0.9	-6.4	2.2	0.1
Fc1cccc(-c2csc(-c3ccno3)n2)c1	-1.1	4.5	-1.8	-10.2	-4.3	-5.7	5.0	-1.0
O=S(=O)(c1cccc2nonc12)N1CCN(c2ccccc2F)CC1	0.4	-14.2	0.5	-10.1	-3.6	-0.1	3.2	-2.5
N#C/C(=C\c1cn(Cc2ccc(F)cc2)c2ccccc12)C(=O)NCc1ccco1	-2.9	19.5	-0.4	-6.2	1.1	-4.4	-63.4	-75.0
CCOC(=O)CCc1c(C)nc2c(c(C)nn2-c2ccc(C)cc2)c1C	0.5	-4.2	-0.9	-7.6	-3.3	1.2	-28.8	1.3
CC(NS(=O)(=O)c1ccccc1)C(=O)NCc1ccco1 (stereo unspecified)	4.6	-7.5	-0.1	-10.2	-3.8	9.1	2.5	-1.7
CCC1(CC)NC(=O)N(CC(=O)N2N=C(c3ccc(Cl)cc3)CC2c2ccco2)C1=O (stereo unspecified)	-1.1	1.3	0.0	11.2	9.2	8.2	3.6	2.0
Cc1ccc(C(=O)N2CCN(C(=O)N3CCOCC3)CC2)cc1	-2.6	-4.6	-0.6	2.2	8.2	-7.6	1.3	-2.0
COc1ccc(S(=O)(=O)N2CCN(CC(=O)Nc3c(C)n[nH]c3C)CC2)cc1OC	0.0	0.7	0.0	.	.	3.2	1.5	.
O=C(Nc1ccc(Br)cc1F)c1ccncc1	1.1	-0.9	-0.6	-13.4	-7.2	0.5	-3.0	4.5
O=C1c2ccccc2C(=O)N1C(CO)C(O)c1ccc([N+](=O)[O-])cc1 (stereo unspecified)	-1.3	-3.3	0.5	2.1	-5.6	3.5	2.7	6.4
C=CCN(c1ccccc1OC)S(=O)(=O)c1cccc(C(=O)NCc2ccco2)c1	-2.3	-7.1	0.6	.	.	3.5	-1.1	.
Cc1cccc(-c2nnc(SCC(=O)c3ccc(O)cc3O)n2C)c1	0.4	-1.9	0.1	2.1	9.9	-1.7	3.1	?
CC(C)CCN(C(=O)Cc1ccc(Cl)c(Cl)c1)c1c(N)n(Cc2ccccc2)c(=O)[nH]c1=O	1.5	36.2	11.5*	-4.4	2.1	-0.6	0.5	-2.4
CC1CCN(S(=O)(=O)c2cccc3cccnc23)CC1	-4.8	-4.1	0.1	4.9	15.8	-2.2	-0.6	0.4
COc1cc2c(cc1NC(=O)c1ccc3c(c1)OCO3)oc1ccccc12	3.1	-8.4	0.3	5.4	-2.2	3.6	-59.5	-3.1
Cc1ccc(N2CC(C(=O)N3CCN(c4ccccc4)CC3)CC2=O)cc1 (stereo unspecified)	0.8	-1.1	0.0	23.2	4.0	-0.6	0.9	-3.0
Cc1ccc(Cl)c(OCC(=O)Nc2ccc(S(=O)(=O)NC3=NCCCCC3)cc2)c1	-0.2	-1.0	-0.4	0.3	1.6	4.9	.	1.2
CC(NC(=O)c1cccc(N(C)C)c1)c1ccc(-n2ccnc2)cc1 (stereo unspecified)	0.1	.	1.5	15.1	1.3	-13.2	-19.2	1.7
CC(=O)Nc1ccc(C(=O)OCC(=O)NCc2cccs2)cc1	4.3	2.1	-0.2	.	.	-17.1	-2.0	.
O=C(Nc1cccc(-c2cn3c(n2)SCC3)c1)c1ccc(Br)o1	1.1	4.7	-0.7	.	121.2*	-16.4	2.6	.
COc1cc(NC(=O)COc2ccccc2[N+](=O)[O-])ccc1NC(=O)c1cccs1	.	.	.	-13.6	1.7	4.8	12.2	3.2
O=C(N/N=C/C(Br)=C/c1ccccc1)c1ccncc1	-2.9	.	-0.7	-7.1	4.1	4.1	.	2.2
Cc1noc2ncnc(Oc3ccc(F)cc3)c12	.	-0.9	0.3	6.7	-9.5	2.5	2.3	1.8
O=C(NCCc1ccncc1)Nc1ccc(Cl)c(Cl)c1	-0.4	-7.0	-0.1	68.5*	-22.0	-0.9	6.8	0.9
CN(CC(=O)N1CCCc2c1c(=O)oc1ccc(O)cc21)Cc1ccccc1	-2.8	-18.0	0.1	20.3	?	-15.5	5.6	1.7
O=[N+]([O-])c1ccc(S(=O)(=O)N/N=C/c2ccsc2)cc1	-0.9	-3.0	3.5	-2.5	0.4	6.1	.	-3.5
O=C(CN1CCC(C(=O)c2ccc3c(c2)OCCO3)CC1)Nc1ccccc1F	-1.5	-1.9	0.6	12.6	5.8	2.5	3.4	2.7
CCCCNC(=O)/C(=C\c1ccc([N+](=O)[O-])o1)NC(=O)c1ccccc1	0.1	1.9	-0.2	63.3*	100.2*	-0.9	7.3	-0.6
CCc1nnc(NS(=O)(=O)c2ccc(NC(=O)c3ccc(C#N)cc3)cc2)s1	1.4	-3.2	0.2	-9.8	0.9	13.5	2.6	0.0
COc1ccc2cc(S(=O)(=O)NC3CC(C)(C)NC(C)(C)C3)ccc2c1	-0.3	-3.4	-0.1	27.7	-8.1	8.5	-1.3	2.9
CCN(CC)S(=O)(=O)c1ccc(N2CCCC2)c(NC(=O)Cc2ccc(OC)cc2)c1	6.6	-7.0	0.6	13.9	-28.4	-2.0	.	3.5
CCN(Cc1ccncc1)S(=O)(=O)c1ccc(C(C)=O)cc1	-0.5	13.4	0.0	-11.9	-13.3	-3.9	0.3	?
COc1ccc(CN2CCCCCC2)cc1Br	-3.8	-8.0	-0.5	48.2	2.6	-5.0	5.8	-3.1
C/C(=N\NC(=O)c1nnn(-c2nonc2N)c1-c1ccc2c(c1)OCO2)c1cccs1	0.7	4.2	0.6	12.4	3.5	-12.1	.	2.4
O=C(CSc1nnc(C2CCCCC2)n1-c1ccccc1)NCc1ccco1	-1.1	-5.8	0.4	6.6	12.2	14.6	0.6	-4.3
CC(=O)Nc1ccc(C2=NNC(=Nc3ccc(S(=O)(=O)N4CCOCC4)cc3)SC2)cc1	0.1	1.4	-5.4	-6.9	-5.4	3.2	6.2	1.1
CCOC(=O)c1ccc(NC(=O)Cn2nnc(-c3ccc(F)cc3)n2)cc1	-0.6	-10.7	0.1	15.0	-4.2	18.0	7.0	3.4
CCCSc1nc(O)c(C2OC(=O)c3c2ccc(OC)c3OC)c(=O)n1-c1ccccc1 (stereo unspecified)	-3.6	-4.7	0.2	-3.7	-0.7	17.5	-2.3	-2.2
CC(=O)N1c2ccccc2C2CCCC[C@@H]21 (stereo partly specified)	-0.7	-10.4	-0.2	.	.	-6.1	0.1	.
CN1CCN(C(=O)c2ccc(C(C)(C)C)cc2)CC1	-1.1	1.7	-0.6	13.4	-20.7	3.3	4.6	-0.8
O=C(O)CNS(=O)(=O)c1ccc(C2CCCCC2)cc1	1.5	0.4	-0.1	-6.4	-11.5	1.3	2.6	1.1
CCCCC(=O)NC(=S)NNC(=O)c1ccc(OC)cc1	0.4	22.0	1.0	-14.0	2.5	6.6	-1.5	-1.6
Cc1ccc[n+](CC(=O)/C=C2\N(C)c3ccccc3C2(C)C)c1	-8.8	68.0	0.4	0.2	0.9	5.4	20.4*	1.5

# Only Beta2AR agonist, for some of the entries so far:
mol | Beta2AR agonist
CCc1nnc(NS(=O)(=O)c2ccc(NC(=O)c3ccc(C#N)cc3)cc2)s1 | 13.5
COc1ccc2cc(S(=O)(=O)NC3CC(C)(C)NC(C)(C)C3)ccc2c1 | 8.5

# (next part)
Compound	LANA-H2B inh	Beta cell apopt	Bfl-1 A1 inh	T cruzi inh	Calb FLC	Beta2AR agonist	UCH37 DUB inh	RanGTP-Impb inh
Cc1ccccc1Cn1cnc2c(cnn2C(C)(C)C)c1=O	-0.4	0.7	0.8	17.2	7.7	1.7	1.1	0.3
COc1ccc(-c2nn(-c3ccccc3)cc2N)cc1	-1.4	-8.8	-0.6	-10.0	3.4	-10.4	-139.4	-0.5
Cc1ccc(NC(=O)Cc2c(O)c3ccccc3[nH]c2=O)c(C)c1	-0.6	-3.0	1.0	-2.4	-16.2	0.2	2.2	0.5
CC(C)Cn1c(SCC(=O)c2ccc(Cl)s2)nnc1-c1ccco1	4.5	-11.0	0.1	13.9	12.6	-9.8	0.8	-3.2
O=C(NC1CCCCCC1)C(Cc1ccccc1)n1cccc1 (stereo unspecified)	5.1	8.9	-0.4	4.0	0.1	-0.8	3.9	-2.6
COc1ccc([C@H]2CC(=O)C=C(c3ccc(O)cc3)C2)cc1OC	-0.1	2.5	-0.4	.	.	-0.9	-2.1	.
N#Cc1ccc(C23CC4(C2)[C@H](CN(Cc2ccc(C(F)(F)F)cc2)[C@@H]4c2ccccc2)C3c2ccc(Cl)nc2)cc1 (stereo partly specified)	.	.	.	24.0	16.7	.	6.1	0.6
Cc1nc(NC(=O)c2ccccc2)sc1Cc1ccc2c(c1)OCO2	-2.0	12.8	-0.2	-11.1	-20.8	-1.8	-1.0	-0.9
COc1cc(C(=O)N2CCC(C(=O)Nc3cccc(C(C)=O)c3)CC2)cc(OC)c1OC	1.8	11.1	-0.9	-9.9	-1.2	21.9	5.7	0.8
COc1ccc(C)cc1NC(=O)CN1CCCC1c1ccc2c(c1)OCCCO2 (stereo unspecified)	-3.4	0.4	1.0	.	.	6.8	-0.2	.
CC(C)Cn1c(=O)[nH]c(=O)c2c(C(F)(F)F)cc(-c3ccccc3)nc21	2.2	-0.3	-0.9	26.9	6.0	1.2	-25.2	-3.6
CCOC(=O)N1CCN(C(=O)CCCCn2c(=S)[nH]c3ccsc3c2=O)CC1	1.6	3.6	-0.1	5.8	-15.6	-7.3	-0.4	-2.6
CCOC(=O)CN1C(=O)C(=O)N(Cc2cccc(C)c2)C1=O	-2.4	-3.5	0.6	-19.5	-0.5	-9.3	6.1	0.6
CN(C)c1ccc(C(CNC(=O)c2ccccc2Br)c2c[nH]c3ccccc23)cc1 (stereo unspecified)	0.4	2.6	-0.2	15.1	40.4	8.3	2.7	5.0
Cc1ccc(OCCN2CCOCC2)cc1C	3.0	-8.6	-0.1	-11.7	0.2	4.0	2.9	-2.7

# High-throughput results: PubChem BioAssay, several laboratories
